HTT promoter inh: inhibits huntingtin promoter activity | HEK293 HTT promoter firefly luciferase reporter (activity 0% = vehicle and -100% = no light), 24 h | Potency, µM (doses to about 57.5 µM), without a hit: at the top dose activity change, negative = inhibition, most hits filed as inhibitors | 0.93% of 48,000 active; active means well fitted inhibition curve with a large enough effect; inconclusive means small, poorly fitted or top-dose-only effect; inactive means no such curve, though single readings can be large or run the other way; further: nearly all actives have a fitted effect of over 50% in size
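Firefly luciferase readout (Dual-Glo, 10 min RT) after 24 h, 37 °C compound exposure (final up to 57.5 uM) of HEK293 reporter cells cultured 24 h beforehand; PTC124 at 50 uM final as control inhibitor; activity scaled vehicle 0%, zero RLU -100%.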
PMP22 txn: modulates PMP22 transcription in S16 Schwann cells; AID 1508649; S16 Pmp22-F2sN Schwann cells (luciferase reporters placed in the Pmp22 gene), FLuc/NLuc coincidence luminescence, 24 h; 2% of 43,000 active; Potency, µM (top dose mostly 57.5 µM), without a hit: at the highest dose activity change, negative = inhibition, actives largely listed as inhibitors; active = clear falling dose curves in both reporters; inconclusive = both reporters move, but less clearly or upward; inactive = either reporter flat; the % is the NLuc reporter signal; further: on the % scale 0 is the no-effect control and ±100 the full control effect; some results filed as inactive show a strong effect at the top dose
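S16 Schwann cells carrying FLuc/NLuc coincidence reporter in the Pmp22 3' UTR treated with compound 24 h at 37C; FLuc then NLuc luminescence read sequentially by dual-luciferase reagents.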
Starred values were filed as active, the others as inactive; u = inconclusive; x = no result given; & = joins results of further samples; [ ] = dose if it differs, or a comment. Potency means the concentration at half of the fitted maximal effect.

SMILES | HTT promoter inh | PMP22 txn
COc1ccccc1N1CCN(Cc2nc(-c3cc(OC)c(OC)c(OC)c3)no2)CC1 | u | -19%
O=C(CSc1oc(-c2ccccc2)nc1S(=O)(=O)c1ccc(Cl)cc1)Nc1ccc(F)cc1 | -14% | -24%
CCOc1cc(-c2ccc(OC(=O)c3ccccc3)c(OC)c2)cc(=O)c2c(C)oc(C)c12 | -2% | u
COc1cc(NS(=O)(=O)c2ccc(N)cc2)nc(OC)n1 | 1%&-4% | x
CCN(CC)c1ccc(-c2nc(-c3ccccc3C)no2)cc1[N+](=O)[O-] | -18% | -27%
NS(=O)(=O)c1cc(C(=O)O)cc(N2CCCC2)c1Oc1ccccc1 | -6% | x
COC(=O)c1sccc1S(=O)(=O)N(CC(=O)NCc1ccc(F)cc1)c1ccccc1 | -13% | u
COc1cccc(N2CCN(C(=O)c3ccc(C)c(NC(=O)c4nsc5ccccc45)c3)CC2)c1 | 6% | -48%
COc1ccc(S(=O)(=O)N2CCC(c3nnnn3-c3ccccc3)CC2)cc1OC | u | -19%
Cc1ccc(-c2nc(CS(=O)(=O)CC(=O)N3CCN(c4cccc(C)c4C)CC3)c(C)o2)cc1 | -21% | u
COc1ccc(Cl)cc1NC(=O)CCn1c(=O)oc2ccccc21 | -9% | -13%
Cc1oc(-c2ccc(C(=O)NCc3cccc(F)c3)cc2)nc1COc1ccccc1 | u | 5%
Cc1oc(-c2ccccc2F)nc1CSCC(=O)NCc1ccccc1 | -23% | 11%
COc1ccc(NC(=O)CN2C(=O)C3(SCC(=O)N3c3ccccc3)c3ccccc32)cc1Cl (stereo not given) | -36% | -30%
Cc1ccc(C)c(NC(=O)C2CCN(c3nn4c(=O)cc(C)nc4s3)CC2)c1 | -16% | -57%
CCOC(=O)c1cccc(NC(=O)c2cc(CN3CCOCC3)on2)c1 | 61%[activator] | 5%
CCOC(=O)c1c(N)n(-c2cccc(OC)c2)c2nc3ccccc3nc12 | -3% | -6%
CCOc1ccc(-n2c(=O)c3c(C)c(C)sc3n(CC(=O)C(C)(C)C)c2=O)cc1 | -8% | u
CCOc1ccc(-c2cc3c(=O)n(CC(=O)NCc4ccc(OC)cc4)ccn3n2)cc1 | 82%[activator] | 10%
Cc1ccc(C)c(N2CCN(C(=O)CCn3c(=O)c4cccn4c4cccnc43)CC2)c1 | -2% | u
CCOc1ccc(Nc2sc(C(=O)c3ccc(F)cc3)c(N)c2S(=O)(=O)c2ccc(C)cc2)cc1 | -8% | -5%
CCCCOC(=O)c1ccc(NC(=O)CSc2nc3c(c(=O)[nH]2)CCC3)cc1 | -29% | u
CC(C)c1nn2c(=O)cc(COC(=O)c3cccc(NC(=O)c4ccccc4F)c3)nc2s1 | -11% | -8%
COc1ccc(OC)c(CCNC(=O)c2c(C)oc3ncn(CC(C)C)c(=O)c23)c1 | -18% | u
CCN(c1ccccc1)S(=O)(=O)c1ccc(NC(=O)c2nc(S(C)(=O)=O)ncc2Cl)cc1 | u | 1.7µM*
COCCCN1C(=O)c2[nH]nc(-c3cc(C)ccc3O)c2C1c1ccc(F)cc1 (stereo not given) | -25% | 38%
Cc1cn([C@H]2C=C[C@@H](CO)O2)c(=O)[nH]c1=O | 16%[116 µM] | x
COc1ccc(CNC(=O)c2cc3c(=O)n(C)c4ccccc4c3n2C)cc1 | -1% | -27%
COc1ccc2cc(CNc3ccc(C)cc3)c(=O)n(CC(=O)Nc3ccc(OC)c(Cl)c3)c2c1 | -28% | u
CCN(CC)CCNC(=O)c1c(C)oc2ncn(C)c(=O)c12 | 10% | 16%
CCC(=O)N1CCc2cc(Br)cc(S(=O)(=O)CCC(=O)N3CCN(c4ccc(F)cc4)CC3)c21 | 11% | -7%
Cc1ccc(Cn2cnc3nc4c(cc3c2=O)CCCC4)cc1 | 35%[activator] | -22%
COc1cn(CC(=O)Nc2ccc(C)cc2)c(CN2CCCCC2)cc1=O | -13% | 5%
CCOc1ccc(/C=C/c2nc(C#N)c(Nc3ccc(OC)cc3)o2)cc1 | 3% | -7%
COc1ccc(NC(=O)Cn2c(=O)n(Cc3ccco3)c(=O)c3sc4ccccc4c32)cc1Cl | -15% | -17%
COc1ccc(-n2ccnc(NCCc3ccc(S(N)(=O)=O)cc3)c2=O)cc1Cl | -39% | 7%
Cc1ccccc1OCC(=O)Nc1nnc(SCc2cc(=O)n3cc(Cl)ccc3n2)s1 | 5% | 1%
CCOc1nc2cccc(C(=O)O)c2n1Cc1ccc(-c2ccccc2-c2nn[nH]n2)cc1 | 1% | x
COCCNC(=O)CSc1nnc(NC(=O)Nc2ccc(C)cc2)s1 | 21% | 4%
CC(C)(C)c1ccc(C(=O)NNc2ncnc3c2cnn3-c2ccc(Cl)cc2)cc1 | u | u
CC1CCN(S(=O)(=O)c2ccc3[nH]ccc3c2)CC1 | -32% | -21%
CC(=O)Nc1ccc(S(=O)(=O)NC2(C(F)(F)F)NC(=O)N(CCc3ccc(F)cc3)C2=O)cc1 (stereo not given) | -15%[11.5 µM] | 4%
Cc1ccc(N2C(=O)CC(c3ccccc3F)C3=C2COC3=O)cc1Cl (stereo not given) | -4% | -1%
CN1CCc2nc3sc(C(=O)Nc4cccc(C#N)c4)c(N)c3cc2C1 | 0% | -20%
Cc1cc(Cl)ccc1OCCCC(=O)NO | u | x
COc1ccc(Cn2ccc3nc(C)c(C(=O)NCc4ccc(F)cc4)cc3c2=O)cc1 | u | -4%
COC(=O)c1ccccc1NC(=O)c1noc2c1CSc1ccccc1-2 | -7% | 10%
COc1ccc(-c2c(C)c3ccc(O)c(CN4CCCC(C)C4)c3oc2=O)cc1OC (stereo not given) | -30% | -8%
CCOC(=O)c1[nH]c(C)c(C(=O)NCc2ccccc2Cl)c1C | -18% | -8%
CCOc1ccc(NC(=O)c2nn(C)c3c2CS(=O)(=O)c2ccccc2-3)cc1 | -12% | -12%
Cc1ccc2c(CNCC(C)c3ccccc3)c(C(=O)O)n(Cc3ccccc3C)c2c1 (stereo not given) | 9% | 2%
Cc1ccc(Cl)cc1NC(=O)c1oc2ccc(S(=O)(=O)N(C)C3CCCCC3)cc2c1C | -4% | 1%
CCOC(=O)c1cccc(NC(=O)CCn2nc(C)c3c(C)n(-c4ccccc4)nc3c2=O)c1 | -25% | 4%
CCOc1ccc2oc(=O)cc(CN3CCN(c4ccccc4)CC3)c2c1 | -22% | u
CCOC(=O)c1ccc(N2C(=O)c3n[nH]c(C)c3C2c2cccc(Br)c2)cc1 (stereo not given) | u | u
Cc1ccc(N2CC(c3nnc(NC(=O)c4ccco4)s3)CC2=O)cc1Cl (stereo not given) | -7% | u
O=c1[nH]c(C2CCCN(S(=O)(=O)c3ccccc3)C2)nc2c1nnn2Cc1ccc(OC(F)(F)F)cc1 (stereo not given) | -10% | 15%
COCCNC(=O)c1[nH]c2cc(C)ccc2c1Sc1ccc(Cl)cc1 | 19% | -11%
COc1ccc(C(=O)Nc2nnc(S(=O)(=O)N(CC(C)C)c3ccccc3)s2)cc1 | -6% | 33%
COc1ccc(Cn2c(=O)c3oc4ccccc4c3n(Cc3ccccc3)c2=O)cc1 | 1% | 6%

Part of the list above, tab-delimited.
SMILES	HTT promoter inh	PMP22 txn
COC(=O)c1ccccc1NC(=O)c1noc2c1CSc1ccccc1-2	-7%	10%
COc1ccc(-c2c(C)c3ccc(O)c(CN4CCCC(C)C4)c3oc2=O)cc1OC (stereo not given)	-30%	-8%

The listing continues.
SMILES | HTT promoter inh | PMP22 txn
Cc1ccccc1OCC(=O)NCC(c1ccc(Cl)cc1)N1CCOCC1 (stereo not given) | u | -15%
O=C(Nc1cccc(Cl)c1)C1CCCN(c2nn3cc(-c4ccc(F)cc4)nc3s2)C1 (stereo not given) | 4µM* | -38%
Cc1cc(SCC(=O)Nc2ccc(Cl)cc2)nc2ccccc12 | -6% | u
O=C(c1ccc2c(c1)N(Cc1cccc(Cl)c1)C(=O)c1ccccc1S2(=O)=O)N1CCN(c2cccc(C(F)(F)F)c2)CC1 | -20% | -89%
CCOc1ccc(NC(=O)C2CCCN(c3nn4cc(-c5ccc(OC)cc5)nc4s3)C2)cc1 (stereo not given) | u | u
Cc1ccc(Cl)cc1NC(=O)CN(C)S(=O)(=O)c1ccc2c(c1)n(C)c(=O)c(=O)n2C | -5% | u
CCc1ccc(Nc2nc3c(S(=O)(=O)c4ccc(C)cc4)nnn3c3ccsc23)cc1 | -13% | 5.8µM*
COc1ccc(CNC(=O)c2cc3cccc4c3n2CC(C)S4)c(OC)c1 (stereo not given) | u | u
CCCCN(CC)CCNC(=O)Cn1c(=O)c2cccn2c2cccnc21 | -8% | -21%
CCOc1ccccc1NC(=O)CC1C(=O)NCCN1C(=O)c1ccc(F)cc1 (stereo not given) | -6% | 12%
NC(=O)CSc1nc2ccc(NC(=O)COc3ccccc3)cc2s1 | -8% | 1%
Cc1ccn2c(Nc3ccccc3C)c(-c3ccccn3)nc2c1 | u | u
Cc1ccc2nc(N(Cc3cccnc3)C(=O)CCOc3ccccc3)sc2c1 | -9% | -29%
Cc1ccc(Nc2c(-c3ccncc3)nc3ccc(C)cn23)cc1 | -9% | u
CCc1ccc(-n2nc(C)c3c(C)cc(=O)n(CC(=O)Nc4ccc(C)c(F)c4)c32)cc1 | -8% | 3%
CCOC(=O)c1cccc(NC(=O)Cn2cnc3nc4c(cc3c2=O)CCCC4)c1 | -20% | 4%
O=C(C1CCC(CNS(=O)(=O)c2ccc(Br)s2)CC1)N1CCN(c2ccc(F)cc2)CC1 (stereo not given) | u | u
COc1cccc(N2CCN(C(=O)c3cc4c(=O)n(Cc5ccccc5)ccc4nc3C)CC2)c1 | -31% | 19%
COc1ccc(CNC(=O)CN2C(=O)COc3ccc(S(=O)(=O)N4CCOCC4)cc32)cc1 | -4% | 2%
Cc1cc(C)cc(-n2ccnc2SCC(=O)Nc2ccccc2F)c1 | -30% | u
O=C(Cc1ccccc1)N(Cc1cccnc1)c1nc2ccc(F)cc2s1 | u | -94%
O=C(Nc1ccc(F)c(C(F)(F)F)c1)Nc1nnc(-c2ccncc2)s1 | u | x
COc1ccc(C(=O)Oc2c(Sc3ccc(Cl)cc3)c(C)nn2C(C)(C)C)cc1OC | u | -13%
CSc1ncc(C(=O)NCc2ccc(C)cc2)c(-c2ccccc2)n1 | 10% | -65%
COC(=O)c1c(NC(=O)C(C)Oc2ccc(Cl)cc2Cl)sc2c1CCCC2 (stereo not given) | u | -9%
CC(C)OCCCNC(=O)c1nn(C)c2c1CSc1ccccc1-2 | -1% | -35%
Cc1ccc(C)c(N2CCN(C(=O)CCn3c(=O)[nH]c4ccccc4c3=O)CC2)c1 | -28% | 6%
CC(=O)c1ccc(NC(=O)CCc2c(C)nn(-c3ccc(N4CCOCC4)nn3)c2C)cc1 | 10% | 8%
O=C(Cn1c(-c2cccs2)cc2ccccc21)NCCCN1CCN(c2ccc(F)cc2)CC1 | u | 10µM*
O=C(Cn1ncc2c(Cl)cccc21)NCc1cccc(Cl)c1 | -14% | -6%
COc1ccccc1N1CCN(C(=O)c2cnn(-c3cccc(Cl)c3)c2C2CCN(C(=O)OC(C)(C)C)CC2)CC1 | u | u
CN(C)c1ccc(CNC(=O)c2sc3ncccc3c2-n2cccc2)cc1 | -33% | u
Cc1c(CNC2CCCCCC2)c(C(=O)O)c(C)n1Cc1ccc(F)cc1Cl | -17% | 3%
Cc1c2cnn(CC(=O)NC(C)C)c(=O)c2c(C)n1Cc1cccc(Cl)c1 | -18% | -9%
Cc1ccc(CCNC(=O)CCSCc2ccccc2F)cc1 | -11% | -2%
COc1ccc(-c2noc(CSc3nnc(-c4ccc(Cl)cc4)n3C)n2)cc1OC | -13% | -76%
Cc1ccc(S(=O)(=O)N2CCN(Cc3ccccc3)CC2)c(C)c1NS(C)(=O)=O | -25% | 24%
Cc1cc(O)c(-c2ccnc3cc(-c4ccccc4)nn23)cc1Cl | -4% | -3%
Cc1ccc2c(=O)c(C(=O)c3ccccc3)cn(CC(=O)Nc3ccccc3)c2n1 | -12% | -6%
CC(C)OC(=O)c1cccnc1SCC(=O)Nc1ccc(C(F)(F)F)cc1Cl | -6% | -19%

Exported as labelled records: entries from further up
SMILES: CC(C)OCCCNC(=O)c1nn(C)c2c1CSc1ccccc1-2
  HTT promoter inh: -1%
  PMP22 txn: -35%
SMILES: Cc1ccc(C)c(N2CCN(C(=O)CCn3c(=O)[nH]c4ccccc4c3=O)CC2)c1
  HTT promoter inh: -28%
  PMP22 txn: 6%
SMILES: CC(=O)c1ccc(NC(=O)CCc2c(C)nn(-c3ccc(N4CCOCC4)nn3)c2C)cc1
  HTT promoter inh: 10%
  PMP22 txn: 8%
SMILES: O=C(Cn1c(-c2cccs2)cc2ccccc21)NCCCN1CCN(c2ccc(F)cc2)CC1
  HTT promoter inh: u
  PMP22 txn: 10µM*

Sorted by SMILES length (highest first): three of the compounds above
SMILES | HTT promoter inh | PMP22 txn
Cc1ccc(C)c(N2CCN(C(=O)CCn3c(=O)[nH]c4ccccc4c3=O)CC2)c1 | -28% | 6%
COc1ccc(-c2noc(CSc3nnc(-c4ccc(Cl)cc4)n3C)n2)cc1OC | -13% | -76%
Cc1c2cnn(CC(=O)NC(C)C)c(=O)c2c(C)n1Cc1cccc(Cl)c1 | -18% | -9%
